# RE007 growth inh – less growth of the S. pombe RE007 Vpr strain. Potency, µM (top dose mostly 92.2 µM), without a hit: at the top dose activity change, negative = less growth. 360,000 tested, 0.21% active. AID 651644. S. pombe RE007 Vpr strain, BacTiter-Glo ATP luminescence, 24 h; control for the full effect not named in the record; active = well fitted falling curve with a large enough effect; inconclusive = small, poorly fitted or top-dose-only effect; inactive = no such curve, though single readings can be large or run the other way;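 also: % is scaled to controls: 0 for no effect and ±100 for the full control effect; nearly all actives have a fitted effect of over 50% in size; the assay follows cell death caused by Vpr and the record does not say whether a fall means rescue or toxicity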
#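 Fission yeast RE007 carrying one integrated HIV-1 vpr copy, seeded at OD 0.01 in PMG+AL medium with 23 nL pinned compound. Grown 24 h at 30 degrees; viability read by BacTiter-Glo luminescence after 5 min.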
# Cruzain inh noDet – blocks cruzain activity in detergent-free assay. purified cruzain, Z-FR-AMC fluorescence, no detergent. Potency, µM, inactives show max response, negative = inhibition, usual class: inhibitors. 200,000 tested, 2.3% active. P25779. AID 1476;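 also: plate controls were enzyme without inhibitor for no effect and buffer without enzyme for full effect; nearly all actives have a fitted effect of over 40% in size; top concentration of the series not given in the record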
# Target sequence (P25779 123-467 limits assumed): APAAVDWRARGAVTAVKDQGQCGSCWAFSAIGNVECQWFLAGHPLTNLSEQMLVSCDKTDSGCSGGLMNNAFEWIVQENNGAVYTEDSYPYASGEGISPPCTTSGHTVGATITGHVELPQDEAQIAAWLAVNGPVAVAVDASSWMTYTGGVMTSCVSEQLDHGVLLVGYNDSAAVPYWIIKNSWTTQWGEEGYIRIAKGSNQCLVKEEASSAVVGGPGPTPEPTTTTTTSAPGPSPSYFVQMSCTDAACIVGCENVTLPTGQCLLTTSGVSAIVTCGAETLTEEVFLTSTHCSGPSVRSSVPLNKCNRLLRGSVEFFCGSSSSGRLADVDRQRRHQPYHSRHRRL
#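 Purified cruzain at 1.5 nM, pre-incubated 15 min with compound at room temperature in 100 mM sodium acetate pH 5.5, 5 mM DTT, 0.00005% Triton X-100. Reaction started with 2 uM Z-FR-AMC; AMC fluorescence increase over 60 s gives rate.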
# Cruzain inh Det – blocks cruzain activity in presence of Triton detergent | 200,000 tested, 0.43% active | purified cruzain, Z-FR-AMC fluorescence, 0.01% Triton | Potency, µM, without a hit: max response, negative = inhibition, actives largely listed as inhibitors | P25779;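 also: plate controls were neutral wells for no effect and buffer without enzyme for full effect; nearly all actives have a fitted effect of over 40% in size; top concentration of the series not given in the record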
#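 Cysteine protease activity tested under reducing, mildly acidic conditions (100 mM sodium acetate pH 5.5, 5 mM DTT) plus 0.01% Triton X-100. Cruzain 1.5 nM; substrate Z-FR-AMC 2 uM; 15 min compound preincubation at room temperature.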
# StopGo reporter – lowers the luciferase signal of an FMDV 2A StopGo reporter. Potency, µM (highest dose often 57.9 µM), inactives show at the top dose signal change, negative = less light. human cells with a luciferase reporter of 2A StopGo recoding; control for the full effect not named in the record. 410,000 tested, 1.2% active; active = well fitted falling curve with a large enough effect; inconclusive = small, poorly fitted or top-dose-only effect; inactive = no such curve, though single readings can be large or run the other way; tested in HEK293T cells; also: % is scaled to controls: 0 for no effect and ±100 for the full control effect; nearly all actives have a fitted effect of over 45% in size; luciferase light after 4 h
# SARS PLpro yeast – inhibitors of SARS-CoV papain-like protease in yeast; S. cerevisiae expressing SARS-CoV PLpro, growth rescue; control for the full effect not named in the record; Potency, µM (top dose mostly 32.9 µM), for inactives: at the highest dose activity, positive = growth rescue; 330,000 tested, 0.19% active; active means well fitted rising curve with a large enough effect; inconclusive means small, poorly fitted or top-dose-only effect; inactive means no such curve, though single readings can be large or run the other way; also: 0% is about no effect; nearly all actives have a fitted effect of over 55% in size; growth read by luminescence after 48 h
# Marburg entry inh – blocks Marburg virus binding to or entry into cells; Marburg virus pseudotyped entry inhibition, cell reporter; control for the full effect not named in the record; about a third of the inactives were read at about 46 µM; Potency, µM (top dose mostly 37.8 µM), without a hit: at the top dose activity change, negative = inhibition, actives largely listed as inhibitors; 300,000 tested, 1.8% active; AID 540276; active = well fitted inhibition curve with a large enough effect; inconclusive = small, poorly fitted or top-dose-only effect, or effect the other way; inactive = flat fitted curve, though single readings scatter; tested in HEK293 cells; about a fifth of its hits are not listed in these tables; also: % is scaled to controls: 0 for no effect and ±100 for the full control effect; luciferase read-out
# LASV entry inh – Lassa virus entry inhibition; Lassa virus pseudotype entry inhibition, cell reporter; control for the full effect not named in the record; Potency, µM (titrated, usually from 37.9 µM), without a hit: top-dose activity change, negative = inhibition, actives largely listed as inhibitors; 300,000 tested, 1.2% active; AID 540256; active means well fitted inhibition curve with a large enough effect; inconclusive means small, poorly fitted or top-dose-only effect, or effect the other way; inactive means flat fitted curve, though single readings scatter; tested in HEK293 cells; also: % is scaled to controls: 0 for no effect and ±100 for the full control effect; nearly all actives have a fitted effect of over 50% in size; luciferase read-out
# NS1 inh – influenza NS1 inhibition; S. cerevisiae slowed by influenza A NS1, growth recovery by OD600; Potency, µM (series often up to 46.1 µM), without a hit: at the top dose activity, positive = more growth; 270,000 tested, 0.4% active; AID 2326; active means well fitted rising curve with a large enough effect; inconclusive means small, poorly fitted or top-dose-only effect; inactive means no such curve, though single readings can be large or run the other way; also: nearly all actives have a fitted effect of over 50% in size
#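 A cell-based growth assay was used: compounds that relieve NS1-induced slow growth of budding yeast raise OD600. Assay medium was yeast nitrogen base with ammonium sulphate and -URA supplement, pH 6.0, with 2% galactose.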
# * hit, by the source's call; ? = inconclusive; nt = not tested or not shown; & = joins results of further samples; [ ] = dose if it differs, or a comment. Unless noted, calls follow the shape of the dose curve; as a rule, active = well fitted curve in the direction sought with a large enough effect; inconclusive = small, poorly fitted or top-dose-only effect, or another doubt; inactive = no such curve, though single readings can be large; an effect the other way counts as inactive or inconclusive. Potency is read from the fitted curve at half-maximal effect.
SMILES,RE007 growth inh,Cruzain inh noDet,Cruzain inh Det,StopGo reporter,SARS PLpro yeast,Marburg entry inh,LASV entry inh,NS1 inh
CCN1CCN(C(=O)c2ccc3c(c2)N(Cc2ccccc2F)C(=O)c2ccccc2S3(=O)=O)CC1,16%,5%,0.9%,8%&23%,-2%,3%&3%[46.1 µM],18%[46.1 µM],2%
O=C1CCCC(=O)N1c1ccc(F)cc1,11%,nt,nt,-3%,-1%,0%[46.1 µM],7%[46.1 µM],2%
COc1cccc(CNC(=O)CSc2nnc3c(n2)[nH]c2ccc(C)cc23)c1,-2%,nt,nt,-1%,0%,3%[46.1 µM],-17%,1%
C/C(Nc1ccccc1C(F)(F)F)=C1/CCOC1=O,23%,nt,nt,-1%,-3%,8%,3%,-4%
COc1ccc2[nH]c(C(=O)Nc3ccc(F)cc3Br)cc2c1,11%,nt,nt,9%,-1%,-21%[46.1 µM],-14%,2%
CS(=O)(=O)c1ccc(Cl)c(NC(=O)CSc2nnc(-c3cccs3)n2N)c1,-25%,nt,nt,-8%,1%,-1%,5%,nt
COCCN(C(=O)c1csnn1)C(C(=O)NC1CCCC1)c1ccccc1 (stereo not given),-6%,nt,nt,-10%,2%,-4%[46.1 µM],3%[46.1 µM],1%
S=C(NCc1ccco1)Nc1ccccc1,-6%,nt,nt,0%,0%,-7%[46.1 µM],-14%,6%
COc1cccc(CNC(=O)c2cc(S(=O)(=O)N3CCCCC3)c[nH]2)c1,2%,4%,-2.8%,-7%&-8%,5%,nt,2%[46.1 µM],-7%
COc1ccccc1C1CC(c2ccccc2)=NN1S(=O)(=O)c1ccccc1 (stereo not given),1%,nt,nt,12%,3%,nt,nt,?
Cc1nnc(SCC(=O)Nc2cccc(N)c2)n1-c1ccccc1,-1%,nt,nt,-6%,1%,9%,?,20%
Cn1c(NC(=O)c2ccco2)c(-c2ccc(Cl)cc2)c(=O)c2ccccc21,11%,-2%,-0.7%,2%,5%,17%,11%,2%
COc1ccc(CCC(=O)NCc2ccc3c(c2)CCN3C(=O)c2ccc(Cl)cc2)cc1,nt,12%,1.2%,0%,nt,nt,?,nt
O=C(CCN1C(=O)COc2ccccc21)N1CCN(c2ccccc2)CC1,6%,nt,nt,-7%,3%,-25%,4%,nt
COc1ccccc1NC(=O)c1ccc(CN2CCOCC2)cc1,0%,3%,3.0%,2%,1%,27%,8%,-1%
CCc1ccc(OCC(=O)Nc2ccc(N3CCN(S(C)(=O)=O)CC3)cc2)cc1,0%,nt,nt,-7%,0%,3%,-8%,8%
O=C(Nc1ncc(Cc2ccccc2Cl)s1)c1ccc2c(c1)CC(c1ccccc1)OC2=O (stereo not given),nt,32µM*,-1.7%,-18%,nt,14%[46.1 µM],16%[46.1 µM],nt
CCOC(=O)c1c(C)[nH]c(C)c1S(=O)(=O)N1CCCC(C(=O)Nc2ccc(F)cc2F)C1 (stereo not given),nt,6%,2.3%,7%,nt,nt,11%[46.1 µM],nt
C=Cc1ccc(Cn2c(SCC(=O)N3CCN(c4ccc(F)cc4)CC3)nc3ccccc32)cc1,nt,-2%,-2.3%,0%,nt,4%[46.1 µM],nt,nt
O=C1NC(=S)N/C1=C/c1ccc(Oc2ccc(C(F)(F)F)cc2[N+](=O)[O-])c(Cl)c1,4%,?,1.0%,-8%,1%,0%,-5%,0%
COC(=O)c1ccc([C@@H](O)[C@H](C)C(=O)CC(=O)OC(C)(C)C)cc1,-9%,nt,nt,2%,-1%,nt,nt,5%
CN(C)C(CNC(=O)c1cc2ccccc2o1)c1ccccc1 (stereo not given),-2%,nt,nt,-5%,nt,?,1%,nt
ClCCOCCCl,-11%,-2%,1.0%,-12%,1%,nt,nt,nt
CC(C)(C)NC(=O)CN(Cc1ccc2c(c1)OCO2)C(=O)CNS(=O)(=O)c1ccccc1,23%,nt,nt,14%,-6%,1%[46.1 µM],?,16%
CCOc1ccc2nc(Cl)c(C3CC(c4ccccc4)=NN3C(=O)CCC(=O)O)cc2c1 (stereo not given),nt,-3%,-1.1%,1%,nt,11%[46.1 µM],-3%[46.1 µM],nt
# The list goes on:
SMILES,RE007 growth inh,Cruzain inh noDet,Cruzain inh Det,StopGo reporter,SARS PLpro yeast,Marburg entry inh,LASV entry inh,NS1 inh
O=C(Nc1cc([N+](=O)[O-])ccc1F)C1CCN(S(=O)(=O)c2cccs2)CC1,11%,nt,nt,?,-3%,8%,11%,nt
CN(C)c1nc(-c2ccccc2)ncc1S(=O)(=O)c1ccccc1,22%,nt,nt,3%,-2%,nt,nt,-2%
CCOC(=O)C1CSc2[nH]c(=O)sc2C1c1ccccc1 (stereo not given),-14%,-3%,-8.3%,-5%,7%,-4%,4%,10%
COc1cc(C(=O)Oc2cccc(C(=S)N3CCOCC3)c2)cc(OC)c1OC,-13%,nt,nt,0%,-4%,7%,?,1%
COc1cccc(C(=O)NCC(c2ccco2)N2CCc3ccccc3C2)c1 (stereo not given),-5%,nt,nt,-4%,3%,-6%,-1%,nt
Cc1cccc(CSCCNC(=S)Nc2ccccc2)c1,-8%,-18%,-17%,11%,-42%,-8%,-10%,-30%
CCOc1ccccc1N1CCN(C(=O)C(Sc2ccccc2)c2ccccc2)CC1 (stereo not given),-8%,-2%,-3.8%,-7%,-18%,?,?,-4%
Nc1cc(C(=O)N2CCN(c3ccc([N+](=O)[O-])cc3)CC2)ccc1N1CC2CC(C1)c1cccc(=O)n1C2 (stereo not given),2%,nt,nt,-4%,2%,?,1%[46.1 µM],5%
COc1ccc(C(=O)Nc2nc(CC(=O)NCCc3ccccc3OC)cs2)cc1,-8%,nt,nt,0%,-3%,?,-7%,nt
N#C/C(=C\c1cccs1)C(=O)Nc1ccccn1,-11%,nt,nt,-16%,-1%,?,?,-2%
Cc1ccc(NC(=O)c2ccc(CSc3nnnn3C)cc2)cc1,4%,-5%,0.4%,-3%,-4%,-24%,?,2%
Clc1ccc(Cl)c(OCCN2CCCC2)c1,9%,nt,nt,-2%,-2%,nt,nt,-18%
Nc1sccc1C(=O)c1ccc(Cl)cc1,?,?,-2.6%,24%,-14%,0%,12%,-19%
COc1ccc(CN2CCCC(C(=O)c3sccc3C)C2)cc1O (stereo not given),11%,nt,nt,-20%,1%,nt,nt,1%
Cc1cc(C)cc(NS(=O)(=O)c2coc(C(N)=O)c2)c1,11%,nt,nt,-8%,0%,nt,nt,13%
CC(C)NC(=O)COC(=O)c1ccc(NS(=O)(=O)c2ccc3c(c2)OCCO3)cc1,-3%,-8%,-0.4%,23%,19%,5%,13%,-7%
N#C/C(=C\c1cccc(Oc2ccccc2)c1)C(=O)N1CCOCC1,20%,nt,nt,35µM*,-3%,?,?,-72%
COc1ccc(C2CC(=O)Nc3cc(C)c(C)cc32)c(OC)c1OC (stereo not given),6%,-8%,-2.7%,?,-5%,-21%[46.1 µM],?,9%
COC(=O)c1cc(Br)c(=O)n(Cc2cccnc2)c1,-10%,1%,4.4%,-13%,0%,2%,3%,8%
CC(=O)Nc1ccc2c(c1)nc(C)n2-c1ccccc1,1%,nt,nt,41%[activator],5%,nt,nt,14%
CC(=O)Nc1ccc(C(=O)Nc2cc(C)on2)cc1,-6%,nt,nt,46%[activator],-1%,6%,-16%,-1%
CCOc1ccc(NS(=O)(=O)c2ccc(C(=O)N3CCCCC3)cc2)cc1,1%,nt,nt,-28%,7%,-6%[46.1 µM],?,-4%
Cc1ccc(S(=O)(=O)N2CCN(C(=O)CNC(=O)c3ccc(Br)o3)CC2)cc1,1%,nt,nt,-15%,4%,2%,0%[46.1 µM],nt
COc1cc(NC(=O)CN2C(=O)C(c3ccccc3)=NC2(C)C)cc(OC)c1,2%,nt,nt,-27%,0%,nt,nt,0%
Cc1ccc(N(CC(=O)Nc2ccccc2C(=O)NCc2ccco2)S(=O)(=O)c2ccccc2)cc1C,-3%,-29%,1.5%,-15%,7%,?,?,?
# The list continues:
SMILES,RE007 growth inh,Cruzain inh noDet,Cruzain inh Det,StopGo reporter,SARS PLpro yeast,Marburg entry inh,LASV entry inh,NS1 inh
CCc1cc(=O)oc2c3c(cc(OCC(=O)NCCCC(=O)O)c12)OC(C)(C)CC3,5%,nt,nt,-5%,-2%,nt,nt,0%
Cn1c(=O)c2cn(-c3ccc4c(c3)OCCO4)cc2n(C)c1=O,-1%,-6%,-1.1%,38%[activator],-10%,?,9%,-7%
CC1(c2ccc(Cl)cc2)NC(=O)CS1 (stereo not given),0%,nt,nt,-26%,-1%,0%[46.1 µM],-19%,0%
Cc1ccc(CCNC(=O)C2CCC(=O)N2Cc2ccc(F)cc2)cc1 (stereo not given),-4%,nt,nt,-9%,0%,nt,nt,1%
O=S(=O)(Nc1cc(S(=O)(=O)N2CCOCC2)ccc1Cl)c1ccccc1,-2%,nt,nt,15%,-4%,1%,8%,nt
C1CN(CCN2CCOCC2)CCN1,12%,nt,nt,1%,-4%,3%,14%,-2%
O=C(Cn1c2ncccc2c(=O)n1-c1ccccc1)NCc1ccccc1,nt,15%,-10%,-1%,nt,nt,16%[46.1 µM],nt
CCOc1ccc(NC(=O)c2c(NC(=O)c3ccncc3)sc3c2CCC(C(C)(C)C)C3)cc1 (stereo not given),nt,6%,-3.6%,-26%,nt,1%[46.1 µM],0%[46.1 µM],nt
O=C(CCl)N(Cc1cc(=O)[nH]c2ccccc12)c1ccccc1,nt,nt,nt,14µM*,1%,3%,nt,2%
COc1cc(/C=C2\C(=O)N(CCC#N)N=C2C)ccc1OCC(=O)Nc1ccccc1,32%,?,-4.2%,?,-16%,?,5%,15%
CCCCn1c2ccccc2c2cc(CC(N)=O)ccc21,7%,nt,nt,-26%,0%,0%[46.1 µM],-3%,-4%
O=C(c1cccc(N2C(=O)C3CC=CCC3C2=O)c1)N1CCN(c2ccccc2)CC1 (stereo not given),4%,16µM*,22µM*,-29%,4%,-10%,-38%[14.3 µM],3%
CO/N=C/C1CCN(c2ncc(C(F)(F)F)cc2Cl)C1=O (stereo not given),0%,nt,nt,-4%,-5%,-6%[46.1 µM],-11%,nt
CCn1c(CC(=O)Nc2ccccc2F)nnc1SCC(=O)N1CCN(c2ccccc2)CC1,15%,8%,5.5%,?,-4%,-21%&-21%,-29%,6%
CCOc1ccc(C=NCC(O)c2ccccc2)cc1 (stereo not given),9%,nt,nt,10%,-1%,nt,nt,1%
O=C(CSc1ncccn1)Nc1ccc2[nH]c(=O)[nH]c2c1,4%,nt,nt,13%,nt,3%,?,nt

# Screening data deposited in PubChem BioAssay by National Center for Advancing Translational Sciences (NCATS).
